Assay outcomes deposited in PubChem BioAssay by Fisher Drug Discovery Resource Center.
NPYLR7 agonist: activates Aedes aegypti NPYLR7 receptor | HEK293T NPYLR7/Galpha15, GCaMP6s calcium fluorescence | activation, % at 10 µM | 270,000 compounds, 0.15% hits | AID 1259423; in the data active = activation above about 40%;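 note: 0% = vehicle and 100% = reference agonist at the receptor; some compounds past the cut are filed as inactive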
NPYLR7 agonist max-min: also measured in NPYLR7 agonist; calls as there; activation, %; measured here: Max-Min RFU normalised activation; some inactives read as strong as hits;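 span of the calcium signal over five minutes; 0% = vehicle and 100% = native peptide agonist; compound fluorescence can raise it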
Starred values were filed as active, the others as inactive; & = joins results of further samples. A portion of the library; the hit share may differ from the screen's.

SMILES	NPYLR7 agonist	NPYLR7 agonist max-min
COCCNC(=O)[C@H]1C[C@@H](O)[C@H](O)[C@@H]2N=C(Nc3ccc(OC(F)(F)F)cc3)S[C@@H]21	-11	-19
Cc1nn2c(nnc3c(=O)n(-c4ccc5c(c4)OCCO5)ccc32)c1-c1ccccc1	7	6
CCc1ccc(C2COCCN2C(=O)C2(C)CC2(Cl)Cl)o1 (stereo not drawn)	-1	-4
COc1cccc(-c2csc(-c3nnn(-c4cccc(F)c4)c3C)n2)c1	6	7
Cc1nn(-c2ccccc2)c(C)c1CC(=O)NC1CCCN(Cc2ccccc2F)C1 (stereo not drawn)	-7	-10
CCOC(=O)c1c(NC(=O)c2cccs2)sc(C(=O)Nc2cccc(C(F)(F)F)c2)c1C	-5	2
Cc1nc(N(C)CC(=O)N(C)C)c2cnn(-c3cccc(Cl)c3)c2n1	4	2
CCOC(=O)c1nc2ccccc2nc1N1CCN(C(=O)C(=O)OC)CC1	1	-4
O=C(NCC(c1ccccc1)c1ccccc1)c1cccnc1Nc1cccc(C(F)(F)F)c1	-2	-4
Cc1ccc2nc(NC(=O)CSc3ccc4nnc(-c5cccc(F)c5)n4n3)sc2c1	11	13
CC(=O)c1ccc(OCC(=O)NC(C)c2cnn(-c3ccccc3C)c2C)cc1 (stereo not drawn)	12	6
Cc1cccc2c(=O)n(CCN3CCCC(c4ccccc4)C3)cnc12 (stereo not drawn)	27&3	17&9
CC(C)(C)C(=O)COC(=O)CNC(=O)c1ccccc1	-5	-5
O=c1[nH]c(-c2ccc(-c3ccc(F)cc3)o2)nc2ccccc12	6&8	5&3
CCCCN(C(C)=O)c1c(CC)nc2ccc(C(=O)N3CCCCC3)cn12	4	-2
O=C(N=Nc1c(O)[nH]c2ccccc12)c1cccc(I)c1	0	-4
COc1ccc(C(O)(c2ccc(OC)cc2)c2ccc(CN(CCN3CCOCC3)Cc3ccc(F)cc3)o2)cc1	2	-1
Clc1ccc(OCc2noc(CSc3nnc(Cn4cncn4)o3)n2)cc1Cl	-22	-26
CCCn1c(=O)c(C(=O)NCc2ccccc2)nn(-c2ccc(C)cc2)c1=O	14	10
Cc1ccccc1-n1nc2c(c1NC(=O)c1ccccc1)CSC2	1	7
Cc1nc(C)c(-c2ccccc2CO)s1	4	1
COc1ccc(N(Cc2nnc3n2CCCCC3)C(=O)Nc2cccc(C)c2)c(OC)c1	17	18
COC(=O)c1ccc2c(c1)CC(CNC(=O)c1ccc(F)cc1F)O2 (stereo not drawn)	6	9
CNC(=O)c1ccc(/C=C/C(=O)NCC(C)(C)CN(C)C)cc1	1	6
CCOc1ccc(/C=C/C(=O)Nc2nnc(SCC)s2)cc1	-2	-6
Continued.
SMILES	NPYLR7 agonist	NPYLR7 agonist max-min
CCc1cc2c(ncn3nnnc23)s1	1	5
COc1cccc(C(NC(C)=O)c2nc(-c3ccc(OC)nc3)cs2)c1 (stereo not drawn)	6	4
COc1ccccc1C(=O)C1CCCN(Cc2cccc3cnccc23)C1 (stereo not drawn)	-5	-8
Cc1nc(N2CCOCC2)nc(N2CCCCC2)c1[N+](=O)[O-]	9	4
CCSc1nc(NCC(C)C)c2cnn(CCNC(=O)c3ccc(F)cc3)c2n1	-2	-3
COc1cc(-c2nc(CN3[C@@H]4CC[C@H]3CNC4)c(C)o2)cc2c1OCO2	3	1
Cn1cc(CN2CCC(Oc3ccc(C(=O)NCc4ccncc4)cc3)CC2)cn1	10	6
Nc1ccnc(N2C[C@@H]3[C@H](C2)[C@H]2CC[C@@H]3O2)n1	-2	-3
CC(C)C(NS(C)(=O)=O)c1ccc(Cl)cc1 (stereo not drawn)	-1	-2
O=C(c1cn2ccsc2n1)N1C[C@H]2OC(=O)N(Cc3ccccn3)[C@H]2C1	-2	-3
FC(F)(F)c1cnc(NN=Cc2ccc3c(c2)OCO3)c(Cl)c1	0	0
Cc1ccc(NC2(C(=O)NCC(=O)Nc3nccs3)CCCC2)cc1	6	5
CN(S(=O)(=O)c1ccc2ccccc2c1)S(=O)(=O)c1cccc(Cl)c1Cl	3	3
O=C(CC(=O)NN=Cc1ccc(Br)o1)NN=Cc1ccc(Br)o1	5	2
CN(CC(=O)N1CCN(c2cccc(Cl)c2)CC1)c1nc(Cc2ccc(Cl)cc2)ns1	15	19
Cc1nc(-c2ccncc2)ncc1C(C)NC(=O)c1ccccc1Cl (stereo not drawn)	17	7
Cc1ccccc1C1=NOC(CN(Cc2ccc(F)cc2F)C(=O)c2cccc(F)c2)C1 (stereo not drawn)	19	31
O=C1CC2(CCN(C(=O)COc3ccsc3C(=O)N3CCC4(CC3)CC(=O)c3cc(F)ccc3O4)CC2)Oc2ccc(F)cc21	-11	-16
CC(=O)CCC1=C(C)C(=O)CC2C(C)(C)CCC[C@]12C (stereo partly drawn)	11	3
CC1=C(C(=O)OC(C)C)C(c2ccc(Cl)c(Cl)c2)NC(=O)N1C (stereo not drawn)	1	-7
CCc1ccc(CNC(=O)c2cn(C3CCS(=O)(=O)C3)nc2C(C)C)s1 (stereo not drawn)	-2	-4
O=C(c1ccc(Br)cc1)N1CCSC1c1ccccc1OCc1ccccc1 (stereo not drawn)	26	40
O=C(CN1C(=O)NC2(CCCCC2)C1=O)NC(=O)NC1CCS(=O)(=O)C1 (stereo not drawn)	0	4
O=C(NC(c1ccccc1)c1cnccn1)C1CCN(Cc2ccccc2F)CC1 (stereo not drawn)	-1	7
NC(C(=O)O)c1ccc(C(=O)O)c(O)c1 (stereo not drawn)	-7	-8

One compound at a time, from the list above. Order of screens: NPYLR7 agonist	NPYLR7 agonist max-min
`COc1cccc(C(NC(C)=O)c2nc(-c3ccc(OC)nc3)cs2)c1` (stereo not drawn) is listed as 6	4
`O=c1[nH]c(-c2ccc(-c3ccc(F)cc3)o2)nc2ccccc12` is listed as 6&8	5&3

(further entries)
SMILES	NPYLR7 agonist	NPYLR7 agonist max-min
CC(C)(C)c1cc(CN2CCN(c3ccc(C(N)=O)cn3)CC2)[nH]n1	3	2
COc1ccccc1C(=O)Nc1ccnn1C1CCN(Cc2csc(C(C)=O)c2)CC1	5	2
CC1CC1C(=O)Nc1ccc(F)cc1C(=O)OCc1noc(C2CC2)n1 (stereo not drawn)	0	100
COc1ccc(C2SCCN2S(C)(=O)=O)cc1OC (stereo not drawn)	7	4
Cc1nn(C2CCS(=O)(=O)C2)c2nc(-c3cccs3)cc(C(=O)NCCC3=CCCCC3)c12 (stereo not drawn)	3	7
Cc1cccc(CC(=O)Nn2cnc3c(cnn3C(C)(C)C)c2=O)c1	8	1
CCOC(=O)C1(Cc2ccccc2C)CCCN(C2CCOCC2)C1 (stereo not drawn)	-6	-11
CC1(C)C=NC2(CCNCC2)S1	35	31
CCCOCCN1CCN(c2cc(OC)ncn2)CC1	7	8
CC1CCCC(NC(=O)Cc2cc(Cl)cc3c2OCOC3)C1 (stereo not drawn)	4&7	2&6
O=C(Nc1ccc(Oc2ncccn2)cc1)C1CCCc2ccccc21 (stereo not drawn)	-3	-6
CN(C(=O)c1ccc(F)cc1Cl)c1ncc(-c2ccccc2)s1	6	3
Cc1cc(NC(=O)COC(=O)C2=NNC(=O)CC2)no1	4	4
Cc1sc2nc(C(C)Sc3ncc(C(F)(F)F)cc3Cl)[nH]c(=O)c2c1C (stereo not drawn)	17	12
CCCSc1nc(NCCOC)c2cnn(CCNC(=O)c3ccco3)c2n1	4	2
C=C(C)Cn1c(=O)c2c(nc3n2CCN3c2cc(C)cc(C)c2)n(C)c1=O	14	6
Cc1cc(-c2c(-c3ccccc3)ncn2CCOc2nonc2C)n[nH]1	-2	-9
O=C(Nc1ccnn1C1CCN(C(=O)C2=CCCCC2)CC1)C1CCOC1 (stereo not drawn)	-2	-5
CC(=O)c1sc(Nc2nc(NC(C)C)nc(NC(C)C)n2)nc1C	7	2
O=C(Cn1nc(-c2ccccc2)c2ccccc2c1=O)Nc1ccc(O)cc1	2	2
Cc1cccc(OCCCc2c(C)n[nH]c2C)c1C	-7	18
OCC#Cc1ccc(-c2nccn2CCc2c[nH]c3ccccc23)s1	6	4
COc1ccc(N2CCN(C(=O)C3CC=CCC3C(=O)NCCc3ccccc3)CC2)cc1 (stereo not drawn)	-8	-16
CN(C)CCC1CN(C(=O)CCCc2cn[nH]c2)CCO1 (stereo not drawn)	5	2
Cn1c(SCC(=O)N2CCOCC2)nc2c([nH]c3ccccc32)c1=O	0	32
The list goes on:
SMILES	NPYLR7 agonist	NPYLR7 agonist max-min
Cc1cc(NC(=O)CC(C)(C)C)nc2c1c(=O)oc1ccccc12	15	9
CCn1nc(C)c(CN2CCCC(N3CCCC3=O)C2)c1C (stereo not drawn)	1	-3
Cc1ccc(-c2nc(C=Nc3ccc(F)cc3)c(O)o2)cc1	-5	-13
Cc1nn(-c2ccccc2)c2[nH]cc(C(=O)NCc3ccccc3)c(=O)c12	-2	19
Cc1nc(CCC(=O)N2CCCC(CCc3ccc(F)c(F)c3)C2)n[nH]1 (stereo not drawn)	4	1
Cc1nc(NCCc2ccccc2)sc1C(=O)N(C)C	-32	-31
CCOC(=O)c1cc(C2CC2)n(C2CCN(C(=O)Cc3cccs3)CC2)n1	28	21
COc1ccc(-c2nc(C(N)=O)c3[nH]c(=O)n(-c4cccc(Cl)c4)c3n2)c(OC)c1	7	12
O=C(Nc1cc(Cl)ccc1O)c1cnn2c(C(F)(F)F)cc(-c3ccc(F)cc3)nc12	-3	-4
COc1ccc(C)c2sc(N(CCCN3CCOCC3)C(=O)C3CCCCC3)nc12	0	-6
CCn1cc(C(=O)N2CCN(Cc3cc(C)ccc3C)CC2)c2nn(-c3ccccc3)c(=O)c-2c1	-1	-6
CC(=O)NCCC(=O)N(CCCc1ccccc1)CCN(C)C	0	-2
CC(NCC(=O)Nc1sc2c(c1C(N)=O)CCC2)c1ccccc1F (stereo not drawn)	2	1
O=C(Cn1cnc([N+](=O)[O-])n1)NN=C1CCCCCC1	-7	-14
Cc1nc(CN(C)C(=O)NC(C)c2ccc(F)c(F)c2)cs1 (stereo not drawn)	-4	-5
CCc1nc(N(CCC(=O)NCCN2CCOCC2)Cc2ccccc2)c2ccccc2n1	16	8
COc1cccc(CCC(=O)N2CCC(n3cnc4ccccc43)CC2)c1	20	9
Cc1ccc(-c2nc(C=Nc3ccc(I)cc3)c(O)o2)cc1	-2	-9
CCOC(=O)c1cc(-c2cccc(NC(=O)c3ccccc3OC)c2)n(-c2ccc(OC)cc2)n1	24	16
CCCCN(C=O)c1c(CC)nc2ccc(C(=O)NCc3cccs3)cn12	-1	-12
Cc1cc(NC(=O)CS(=O)(=O)Cc2c(C)noc2C)no1	9	7
CCc1nnc(NC(=O)NCc2coc(-c3ccccc3)n2)s1	1	-1
NC(=O)c1ccc(COC(=O)c2cc(Br)ccc2O)cc1	-6	-10
Cc1c(-c2cn(C(C)c3nnc(N)s3)nn2)c(=O)n(-c2ccccc2)n1C (stereo not drawn)	-1	-1
c1ccc(-c2nc3sc4c(ncn5cnnc45)c3c3c2CCC3)cc1	1	-1

Taken from the listing (14 entries):
SMILES	NPYLR7 agonist	NPYLR7 agonist max-min
O=C(Nc1cc(Cl)ccc1O)c1cnn2c(C(F)(F)F)cc(-c3ccc(F)cc3)nc12	-3	-4
COc1ccc(C)c2sc(N(CCCN3CCOCC3)C(=O)C3CCCCC3)nc12	0	-6
CCn1cc(C(=O)N2CCN(Cc3cc(C)ccc3C)CC2)c2nn(-c3ccccc3)c(=O)c-2c1	-1	-6
CC(=O)NCCC(=O)N(CCCc1ccccc1)CCN(C)C	0	-2
CC(NCC(=O)Nc1sc2c(c1C(N)=O)CCC2)c1ccccc1F (stereo not drawn)	2	1
O=C(Cn1cnc([N+](=O)[O-])n1)NN=C1CCCCCC1	-7	-14
Cc1nc(CN(C)C(=O)NC(C)c2ccc(F)c(F)c2)cs1 (stereo not drawn)	-4	-5
CCc1nc(N(CCC(=O)NCCN2CCOCC2)Cc2ccccc2)c2ccccc2n1	16	8
COc1cccc(CCC(=O)N2CCC(n3cnc4ccccc43)CC2)c1	20	9
Cc1ccc(-c2nc(C=Nc3ccc(I)cc3)c(O)o2)cc1	-2	-9
CCOC(=O)c1cc(-c2cccc(NC(=O)c3ccccc3OC)c2)n(-c2ccc(OC)cc2)n1	24	16
CCCCN(C=O)c1c(CC)nc2ccc(C(=O)NCc3cccs3)cn12	-1	-12
Cc1cc(NC(=O)CS(=O)(=O)Cc2c(C)noc2C)no1	9	7
CCc1nnc(NC(=O)NCc2coc(-c3ccccc3)n2)s1	1	-1

Next results.
SMILES	NPYLR7 agonist	NPYLR7 agonist max-min
CCOC(=O)/C=C/C(=O)Nc1ccc(S(=O)(=O)N(C)c2ccccc2)cc1	-6	1
Cc1cc(OCC2CN(C(=O)c3ccc4c(c3)CCO4)CCO2)ccc1Cl (stereo not drawn)	-2	-5
c1cc(CN(Cc2nc(-c3ccc4c(c3)OCO4)no2)CC2CCCO2)ccn1 (stereo not drawn)	13	-5
O=c1c(N=Nc2nccs2)c(-c2ccc([N+](=O)[O-])cc2)[nH]n1-c1ccccc1	-4	-10
Cn1c(O)c(N=NC(=O)COc2ccc([N+](=O)[O-])cc2Br)c2ccccc21	-1	-8
c1ccc(SCCNCc2cc3ccccc3o2)cc1	4	4
O=C(c1cccc2ccnn12)N1CCCC1c1nccs1 (stereo not drawn)	-2	-3
O=C(NC(c1ccc(F)cc1)c1cnccn1)C1CCN(CCOc2ccc3ccccc3c2)CC1 (stereo not drawn)	-12	-17
O=C(Nc1ccc2nc([C@H]3C[C@H](O)[C@@H](CO)O3)[nH]c2c1)c1cccnc1	12	18
CCCn1c(=O)c2c(nc3n2CCN3c2ccccc2)n(C)c1=O	10	9
C=CCNc1nc2ccccc2nc1NS(=O)(=O)c1ccc(Br)cc1	4&18	0&10
CN1CCN(C(=O)c2cc3n(n2)C(C(F)(F)F)CC(c2ccc(Cl)cc2)N3)CC1 (stereo not drawn)	-1	-5
O=C(COc1ccc(Cl)cc1)N=Nc1c(O)n(CN2CCOCC2)c2ccccc12	-3	-3
CC(C)(C)c1cc(N=Cc2nc(-c3ccco3)oc2O)c(O)c(C(C)(C)C)c1	-5	-14
O=C(OCc1nc(C(=O)N2CCC[C@H]2C(=O)OCc2ccccc2)cs1)c1ccccc1	-9	-16
